Hsc70: Hsc70 inhibitors, probe displacement, primary screen, biochemical, fluorescence polarization (AID 568); Heat shock cognate 71 kDa protein (Homo sapiens); displacement, % at 20 µM; hits with a dose series show IC50 in µM; 83,000 tested, under 10 active; Hsc70 fluorescence polarization, probe displacement; higher % means a stronger effect; strong numbers were not always called active;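 active = displacement above 50% without optical interference and an IC50 on retest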;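 also: ATPase domain with a fluorescein-tagged ATP probe; 0% = vehicle and 100% = excess ADP; read after one hour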
MT1-MMP promoter: inhibitors of MT1-MMP promoter transcription, cell-based, luciferase reporter, luminescence (AID 618) | actives 0.62% (n = 87,000) | MT1-MMP promoter luciferase reporter cells, luminescence | calls from a first round at 10 µM; hits with a dose series show EC50 in µM;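 active = over half of the reporter light lost at 10 µM or EC50 under 50 µM; inactive = the rest and hits that failed the dose series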;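 also: actives suppress MT1-MMP promoter-driven transcription so potencies describe inhibitors; HT1080 fibrosarcoma cells; overnight exposure; toxic or luciferase-blocking compounds were not removed from the actives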
WNV protease inh: inhibitors of WNV NS2B-NS3 protease, primary screen, biochemical, fluorogenic substrate. Genome polyprotein (West Nile virus), P06935. fluorogenic substrate Ex360/Em465; hits give low values. z-score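 (tested at a level between 10 and 100 µM)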. actives 0.18% (n = 65,000). AID 577, 2007;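 active = z-score at -3 or under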;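 also: score is relative to mean and spread of the compound wells of a plate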
Target sequence (P06935 1371-1501 limits assumed): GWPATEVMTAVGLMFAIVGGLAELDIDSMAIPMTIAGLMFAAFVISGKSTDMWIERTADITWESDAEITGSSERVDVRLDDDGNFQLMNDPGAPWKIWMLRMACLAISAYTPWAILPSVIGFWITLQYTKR
Target sequence (P06935 1502-1679 limits assumed): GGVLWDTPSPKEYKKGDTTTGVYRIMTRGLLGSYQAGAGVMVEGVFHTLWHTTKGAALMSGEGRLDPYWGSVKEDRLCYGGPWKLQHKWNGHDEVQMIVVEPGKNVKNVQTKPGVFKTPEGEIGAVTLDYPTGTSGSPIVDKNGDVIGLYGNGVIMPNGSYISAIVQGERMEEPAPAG
* hit, by the source's call; i = inactive; / = no result given.

Every second line gives: WNV protease inh	Hsc70	MT1-MMP promoter
> CCOC(=O)c1cccc(NC(=O)CSc2nnc(-c3cccnc3)n2C)c1
→ 0.91	-3.7%	i
> Cc1onc(-c2c(F)cccc2Cl)c1C(=O)OCn1nnc2ccccc2c1=O
→ -0.62	0.2%	i
> CSc1nc(-c2ccco2)cc(-c2ccccc2)c1C#N
→ -0.5	0.7%	i
> CCC(C)NC(=O)C1CCCN1S(=O)(=O)c1ccc(Cl)cc1 (stereo not given)
→ /	-7.4%	i
> CCCNC(=O)CC1Sc2ccccc2NC1=O (stereo not given)
→ -1.05	-1.8%	i
> CCS(=O)c1ccccc1C(=O)O (stereo not given)
→ -0.47	2.8%	i
> CSCC[C@H](NC(=O)Nc1ccc(C)cc1C)C(=O)O
→ 1.27	2.2%	i
> CCc1nnc(NC(=O)CSc2nnc(COc3ccc(C)cc3)n2-c2ccccc2)s1
→ 0.19	1.7%	i
> Cc1nnc(NC(=O)C2CCCN(S(=O)(=O)c3ccccc3C(F)(F)F)C2)s1 (stereo not given)
→ -1.06	0.0%	i
> Cc1cc(C)n(-c2nc3ccccc3c(=O)n2OCC(=O)N(C)C)n1
→ -0.03	7.7%	i
> Cc1nnc(C)c2c(C)n(-c3ccc(Br)cc3)c(C)c12
→ -0.21	9.2%	i
> COCCNC(=O)C(c1ccccc1)N(Cc1cccs1)C(=O)Cn1nnc2ccccc21 (stereo not given)
→ 1.08	-4.9%	i
> OC1(c2cccc(C(F)(F)F)c2)CCNCC1
→ 0.14	-2.3%	i
> Clc1ccccc1-c1nnc2sc(CCc3ccccc3)nn12
→ -0.02	-1.3%	i
> CC(Sc1nc(N2CCCCC2)c2c(c1C#N)CCCC2)C(=O)O (stereo not given)
→ -0.23	-6.1%	i
> Cc1ccccc1C(=O)NCc1ccncc1
→ 1.56	-1.9%	i
> Cc1ccc(CCN2CC(C(=O)NCCN3CCOCC3)CC2=O)cc1 (stereo not given)
→ -1.31	-1.2%	i
> COc1ccc(CN(CCN(C)C)Cc2ccccc2)c(OC)c1
→ 0.27	-5.7%	i
> Cc1cc(NC(=O)c2ccc3nc(C)sc3c2)no1
→ -0.95	4.3%	i
> CC(C)=CCCC1=CCC2C(=O)NNC(=O)C2C1 (stereo not given)
→ /	-4.6%	i
> CC1(C)C(=O)C2(CCCCC2)C(=O)OC1c1cccs1 (stereo not given)
→ -0.21	0.8%	i
> CN(CCOC(=O)C1c2ccccc2Oc2ccccc21)C(C)(C)C
→ /	0.8%	i
> CC1CCCC(C(=O)O)N1C(=O)CCS (stereo not given)
→ /	-0.4%	i
> CCCS(=O)(=O)N1CCN(C(=O)c2cc(OC)cc(OC)c2)CC1
→ 0.66	6.8%	i
> COc1ccc(Cc2nnc(SCC(=O)NC3CCCCC3)n2C)cc1
→ -0.63	14.3%	i
> O=C(O)c1cccn1Cc1ccccc1F
→ 0.57	-1.6%	i
> CC(CCc1ccccc1)NC(=O)C1CCCN(C(=O)c2cc3sccc3n2C)C1 (stereo not given)
→ -0.58	-6.4%	i
> CCOC(=O)Nc1sc(NS(=O)(=O)c2ccc(C)cc2)nc1C
→ /	1.7%	i
> CCOc1ccc(N2C(=O)CC(NCCc3ccc(S(N)(=O)=O)cc3)C2=O)cc1 (stereo not given)
→ 1.01	-0.7%	i
> CC(C)(C)c1ccc(C(=O)OCCNC(=O)c2c(Cl)nc3ccccn23)cc1
→ /	-0.7%	i

Two compounds from above, limited to WNV protease inh:
SMILES	WNV protease inh
Cc1onc(-c2c(F)cccc2Cl)c1C(=O)OCn1nnc2ccccc2c1=O	-0.62
CSc1nc(-c2ccco2)cc(-c2ccccc2)c1C#N	-0.5

An excerpt of these results, as tab-separated lines.
Molecule	WNV protease inh	Hsc70	MT1-MMP promoter
Cc1nnc(NC(=O)C2CCCN(S(=O)(=O)c3ccccc3C(F)(F)F)C2)s1 (stereo not given)	-1.06	0.0%	i
Cc1cc(C)n(-c2nc3ccccc3c(=O)n2OCC(=O)N(C)C)n1	-0.03	7.7%	i

Next section.
Every second line gives: WNV protease inh	Hsc70	MT1-MMP promoter
> COc1cc(C)nc(N(C)S(=O)(=O)c2ccccc2Cl)n1
→ 0.55	-1.2%	i
> O=C1OC(NC(=O)c2ccccc2)C(N2CCOCC2)=C1Cl (stereo not given)
→ -0.97	-2.0%	i
> CC(=O)NC1CC2CCCC(C1)N2CC(=O)NCc1ccc(F)cc1 (stereo not given)
→ -0.09	-5.0%	i
> COc1ccc(N2CCCn3c2nc2c3c(=O)n(Cc3ccccc3F)c(=O)n2C)c(OC)c1
→ -0.42	0.4%	i
> COc1ccc(CN2CN=C(Nc3nc4ccccc4s3)NC2)cc1
→ /	2.2%	i
> Cc1cccc(N=C2NC(=O)/C(=C3/C(=O)N(C)c4ccccc43)S2)c1C
→ -0.47	3.1%	i
> CN(C)CCCNC(=O)CC(c1ccc(F)cc1)c1ccco1 (stereo not given)
→ 0.49	0.7%	i
> CCOc1ccc(-n2cc(C(=O)N3CCN(C)CC3)c3cc(OC)c(OC)cc3c2=O)cc1
→ 0.89	-3.5%	i
> CSc1cc(-c2ccc(Cl)cc2)n(Cc2ccccc2)c(=O)c1C#N
→ /	-9.1%	i
> COC(=O)C1CCN(C(=O)C2CCCCC2)CC1
→ -0.22	4.0%	i
> COc1ccc(C(=O)N2CCC(C(=O)Nc3cccc(C)c3)CC2)cc1OC
→ -0.73	-2.6%	i
> COc1ccc(NS(=O)(=O)c2ccc3oc(Nc4ccc5c(c4)OCCO5)nc3c2)cc1
→ -0.13	2.0%	i
> CC(C)(C)NC(=O)NC(=O)CSc1nnc(-c2ccccc2F)n1N
→ /	-1.4%	i
> O=C(C1CC(=O)N(C2CCCC2)C1)N1CCN(c2ccc(F)cc2)CC1 (stereo not given)
→ -0.79	-8.0%	i
> Cc1ccc(-c2cc(C(F)(F)F)n3ncc(C(=O)NCc4ccco4)c3n2)cc1
→ 1.15	-1.4%	i
> CCOc1ccc(CCNC(=O)C2CCN(c3nnc(-n4cccc4)s3)CC2)cc1OCC
→ 0.27	7.8%	i
> O=C(NC1CCCCCCC1)C1CCCN(S(=O)(=O)c2cnc[nH]2)C1 (stereo not given)
→ -1.65	1.0%	i
> O=C(NCCN1C(=O)CCC1=O)c1ccncc1
→ -0.31	-3.1%	i
> COC(=O)C(NC(=O)c1ccc(Cl)cc1)(Nc1nc(C)cs1)C(F)(F)F (stereo not given)
→ /	4.1%	i
> CCOC(=O)CSc1nnc(-c2ccoc2C)n1-c1ccc(C)cc1
→ /	3.6%	i
> Cn1nnnc1SCC(=O)NC(=O)Cc1ccccc1
→ -0.47	-0.2%	i
> COc1ccc(NS(=O)(=O)c2c(C)[nH]c(=O)[nH]c2=O)c(OC)c1
→ 0.14	-2.9%	i
> Cn1c2ccccc2c2nnc(SCc3ccc4nonc4c3)nc21
→ -0.27	-0.7%	i
> Cc1cc(C)c(NS(=O)(=O)c2ccc(Cl)c(C(=O)O)c2)c(C)c1
→ /	2.8%	i
> N#Cc1c(N)nc(SCC(=O)NC2CCCCC2)c(C#N)c1-c1ccc(Cl)cc1
→ -1.4	2.0%	i
> COc1cccc(NC(=O)N2CCC(C(=O)Nc3ccc(C)cc3C)CC2)c1
→ 0.68	0.4%	i
> O=C(Nc1ccc2nc(-c3ccc(Br)o3)[nH]c2c1)c1ccco1
→ -0.81	3.7%	i
> Clc1ccc(OCCn2cnc3ccccc32)c(Cl)c1
→ /	-4.0%	i
> COC(=O)c1ccccc1N1C(=O)C2C(C1=O)[C@H]1C=C[C@@H]2C1 (stereo not given in full)
→ 1.51	-1.6%	i
> Cc1ccc(NC(=O)c2cc(N3CCOCC3)nc3ccccc23)cc1
→ -0.79	1.3%	i

In the list so far, three contain a tert-butyl group:
Every second line gives: WNV protease inh	Hsc70	MT1-MMP promoter
> CN(CCOC(=O)C1c2ccccc2Oc2ccccc21)C(C)(C)C
→ /	0.8%	i
> CC(C)(C)c1ccc(C(=O)OCCNC(=O)c2c(Cl)nc3ccccn23)cc1
→ /	-0.7%	i
> CC(C)(C)NC(=O)NC(=O)CSc1nnc(-c2ccccc2F)n1N
→ /	-1.4%	i

Next section
Every second line gives: WNV protease inh	Hsc70	MT1-MMP promoter
> CCC(=O)Nc1c(C#N)c2nc3ccccc3nc2n1C1CCCCC1
→ 0.35	-5.0%	i
> Nc1c(C(=O)NC2CC2)c2nc3ccccc3nc2n1-c1ccc2c(c1)OCO2
→ -1.21	0.9%	i
> COCCn1nnnc1CN(Cc1ccco1)Cc1cc2cc3c(cc2[nH]c1=O)OCO3
→ /	5.1%	i
> Cc1cc2c(cc1C)NC1(C(=O)Nc3ccccc31)C1=C(CC(C)(C)CC1=O)N2 (stereo not given)
→ 0.28	2.4%	i
> COc1ccc(N2CCN(C(=O)CN3C(=O)C4CC=CCC4C3=O)CC2)cc1 (stereo not given)
→ 0.64	5.5%	i
> CCOC(=O)c1ccc(COC(=O)CCc2nc3ccccc3[nH]c2=O)o1
→ -1.06	6.8%	i
> CC(C)(C)NC(=O)c1cccc(NC(=O)c2ccc(NC(=O)c3ccco3)cc2)c1
→ 0.6	4.6%	i
> CCn1ccnc1C(O)c1cccc(OC)c1 (stereo not given)
→ 0.62	-2.4%	i
> CCOCCn1c(CN2CCN(C)CC2)nc2c1c(=O)n(C)c(=O)n2C
→ -0.88	-0.4%	i
> CCCCCCSc1nsc(NC(C)=O)n1
→ -0.44	9.6%	i
> NC(=O)C1CCN(C(=O)C2CCN(S(=O)(=O)c3ccccc3)CC2)CC1
→ -0.28	-1.5%	i
> CC(=O)c1ccc(NC(=O)c2cnn3c(C(F)F)cc(C4CC4)nc23)cc1
→ /	2.0%	i
> COC(=O)C1=C(C)N(C)C(C)=C(C(=O)OC)C1c1ccccc1C
→ -0.52	-1.7%	i
> CCCc1ccc(OCc2ccc(C(=O)O)o2)c(OC)c1
→ /	-6.1%	i
> CSc1nc2ccc(Nc3nc(N4CCOCC4)nc(N4CCOCC4)n3)cc2s1
→ 0.78	2.4%	i
> COc1ccc(C(=O)Nc2ccc(-c3cn4ccsc4n3)cc2)cc1S(=O)(=O)N1CCOCC1
→ -0.39	-1.4%	i
> O=C(CC1(O)C(=O)N(C/C=C/c2ccccc2)c2ccccc21)c1ccccn1 (stereo not given)
→ 1.07	2.7%	i
> O=C(NCCCn1ccnc1)c1ccc(S(=O)(=O)N2CCCCCC2)cc1
→ /	-0.3%	i
> COC(=O)CN(c1ccc2c(c1)OCCO2)S(=O)(=O)c1ccccc1
→ -0.47	2.8%	i
> S=c1[nH]nc(-c2ccccc2)n1Cc1ccccc1
→ 0.25	0.6%	i
> CC(C)OCCCNc1nc2c([nH]1)c(=O)n(C)c(=O)n2C
→ -0.78	1.4%	i
> O=C(OCc1nc(-c2ccccc2)oc1COC(=O)c1ccco1)c1ccco1
→ -0.33	-6.8%	i
> CC(=O)c1cc2c(C)cc(=O)oc2cc1O
→ /	-19.2%	i
> O=C(CCCCCN1C(=O)CCC1=O)Nc1ncn[nH]1
→ 0.78	7.8%	i
> Cc1cccn2c(=O)c(C=Nc3ccccc3)c(NCCO)nc12
→ 0.52	0.0%	i
> Nc1ccc(-n2c(N)c(C(=O)NCc3ccc4c(c3)OCO4)c3nc4ccccc4nc32)cc1
→ -0.76	-0.7%	i
> CCOC(=O)C(CC)n1cnc2c(cnn2-c2ccc(Cl)cc2)c1=O (stereo not given)
→ 0.41	-4.0%	i
> Cn1c(SCC(=O)N2CCN(S(=O)(=O)c3ccccc3)CC2)nc2ccccc21
→ /	5.5%	i
> O=C(c1cn(CC(=O)N2CCCC2)c2ccccc12)C1CCCCC1
→ -0.55	-0.2%	i
> CC12CCC(C(=O)NCCN3CCCCC3)(CC1=O)C2(C)C (stereo not given)
→ 1.05	-2.1%	i
> COc1ccc(-n2c(Cc3cccn3C)nnc2SCC(=O)Nc2ccccc2C)cc1
→ 0.27	-0.1%	i
> COc1ccccc1N1CCN(C(=O)CN(c2cc(C)cc(C)c2)S(C)(=O)=O)CC1
→ 0.09	0.6%	i
> COc1ccc2[nH]c3c(NCCN4CCCCC4)ncnc3c2c1
→ 1.1	4.4%	i
> Cc1ccc(OCn2c(=O)sc3ccccc32)cc1
→ -0.72	0.3%	i
> Cc1c(NC(=O)OC(C)C)sc(=S)n1C
→ /	3.1%	i
> Cc1ccc(CNC(=O)c2ccc(CN3CCOCC3)cc2)cc1
→ 1.02	-8.7%	i
> CCC1CCC(NC2CCCCNC2=O)CC1 (stereo not given)
→ -0.37	-1.0%	i
> Nc1ccc2nc(-c3ccc(N)c(Cl)c3)[nH]c2c1
→ /	-0.6%	i
> COc1ccc(CCN2CC34C=CC(O3)C(C(=O)NCc3ccccc3)C4C2=O)cc1OC (stereo not given)
→ -0.21	1.0%	i
> CCCCCc1c(O)c2ccccc2[nH]c1=O
→ -0.32	5.7%	i
> CCCn1c(SCC(=O)NCCc2ccc(Cl)cc2Cl)n[nH]c1=O
→ 0.15	2.2%	i
> Cc1ccc(CN(c2ccc(C(=O)N3CCOCC3)cc2)S(C)(=O)=O)cc1
→ 2.51	-9.4%	i
> COc1cc(NC(=O)c2cnn3c(C)cc(C)nc23)c(OC)cc1Cl
→ -0.97	7.1%	i

Rows are unselected; any-hit rate near 0.8%.
